# 2A firefly: FMDV 2A StopGo reporter, firefly signal; HEK cells with a luciferase reporter of 2A StopGo recoding; Potency, µM (doses to about 57.5 µM), for the others: at the top dose signal change, negative = less light; 0.23% of 120,000 active; active = well fitted falling curve with a large enough effect; inconclusive = small, poorly fitted or top-dose-only effect; inactive = no such curve, though single readings can be large or run the other way; note: nearly all actives have a fitted effect of over 60% in size; overnight with compound
# 2A Renilla: lowers the Renilla signal of an FMDV 2A StopGo reporter; AID 1745857; 0.32% of 120,000 active; HEK cells with a luciferase reporter of 2A StopGo recoding; Potency, µM (doses to about 57.5 µM), without a hit: at the highest dose signal change, negative = less light; active means well fitted falling curve with a large enough effect; inconclusive means small, poorly fitted or top-dose-only effect; inactive means no such curve, though single readings can be large or run the other way; note: nearly all actives have a fitted effect of over 55% in size; overnight with compound
# An asterisk follows results filed as active; u = inconclusive; [ ] = another dose, or the depositor's remark. % is set by controls: 0 for no effect and ±100 for the full control effect; potency is the fitted concentration of half-maximal effect. Only part of the results is shown (hit frequency here may not be typical).
SMILES | 2A firefly | 2A Renilla
CC(=O)c1ccc(NC(=O)Cn2ncc3c4ccccc4n(Cc4ccccc4)c3c2=O)cc1 | -8% | -10%
CCC1=C(c2ccc(C)cc2)S(=O)(=O)N=C1N1CCC(C(=O)NCc2ccccc2Cl)CC1 | -17% | 26%
CCc1cccc(NC(=O)Cn2cc(C(=O)c3ccncc3)c(=O)c3cc(C)c(C)cc32)c1 | 0% | 14%
COc1ccc(/C=C/C(=O)NCc2ccc(C)cc2)cc1 | 0% | 31%[activator]
Cc1occc1C(=O)Nc1nc(CC(=O)Nc2ccc(C(C)C)cc2)cs1 | u | 3%
CCC(Oc1ccccc1)C(=O)Nc1cccc(OCc2cc(=O)n3cccc(C)c3n2)c1 (stereo not given) | -14% | -14%
CCc1ccccc1NS(=O)(=O)c1ccc(OC)c2ncccc12 | -10% | 232%[activator]
CC(=O)c1cccc(NS(=O)(=O)c2cc(-c3onc(C)c3C)ccc2C)c1 | u | 89%[activator]
CC(C)(C)C(=O)N1CCC(C(=O)Nc2ccc(S(=O)(=O)N3CCCC3)cc2)CC1 | -12% | -7%
COc1ccc2c(CN3CCN(c4ccccc4O)CC3)cc(=O)oc2c1 | 7% | -9%
COc1cc(CC#N)cc(OC)c1OC | -15%[11.5 µM] | -2%
COc1cc(NC(=O)c2cccc(OCC3CCCO3)c2)c(OC)cc1NC(=O)c1ccccc1 (stereo not given) | -25% | u

# Three compounds out of the list, ordered by length of the SMILES, largest number first:
SMILES | 2A firefly | 2A Renilla
CC(=O)c1cccc(NS(=O)(=O)c2cc(-c3onc(C)c3C)ccc2C)c1 | u | 89%[activator]
CCc1ccccc1NS(=O)(=O)c1ccc(OC)c2ncccc12 | -10% | 232%[activator]
COc1ccc(/C=C/C(=O)NCc2ccc(C)cc2)cc1 | 0% | 31%[activator]

# Other records.
SMILES | 2A firefly | 2A Renilla
Cc1ccc(-n2c3c(cc(-c4nc(-c5ccc(Cl)cc5)cs4)c2=O)C(=O)CC(C)(C)C3)cc1 | 77%[activator] | 19%
Fc1ccccc1-c1nnc(SCc2ccc3ccccc3n2)n1C1CC1 | 0% | 26%
CC(=O)Nc1ccc(NC(=O)c2ccc3ccccc3n2)cc1 | -7% | 5%
O=C(CC(c1cccs1)N1Cc2ccccc2C1=O)Nc1ccc(F)cc1 (stereo not given) | -13% | 0%
COCc1nn2c(=O)c(NC(=O)c3ccc(Cl)cc3)cnc2s1 | 18% | 8%
CC1=CC(=O)c2ccccc2C1=O | -13%[11.5 µM] | -7%
Cc1oc(-c2cccc(Cl)c2)nc1Cn1c(SCc2ccc(F)cc2)nc2cccnc21 | -13% | -6%
COc1ccc(C)cc1NC(=O)c1cn(C)c(=O)c2cc(OC)c(OC)cc12 | -19% | 2%
Brc1ccc(C2OCC3(CO2)CC2C=CC3C2)cc1 (stereo not given) | 93%[activator] | 8%
Cc1ccsc1CN1CCc2nc(N3CCN(c4ccccc4F)CC3)ncc2C1 | -2% | -11%
COc1ccc2c(C)c(CCC(=O)N3CCN(C)CC3)c(=O)oc2c1 | 0% | -3%
O=C(O)c1ccc(/C=C/c2nc(-c3ccc(Cl)cc3)cs2)cc1 | 26% | 2%[1.06 µM]

# Looked up above.
# Reading of O=C(CC(c1cccs1)N1Cc2ccccc2C1=O)Nc1ccc(F)cc1 (stereo not given) under 2A firefly: -13%
# Reading of Cc1oc(-c2cccc(Cl)c2)nc1Cn1c(SCc2ccc(F)cc2)nc2cccnc21 under 2A firefly: -13%
# Reading of CC(=O)Nc1ccc(NC(=O)c2ccc3ccccc3n2)cc1 under 2A Renilla: 5%

# More structures
SMILES | 2A firefly | 2A Renilla
COc1ccc(S(=O)(=O)c2nnn(-c3cc(Cl)c(OC)cc3OC)c2C)cc1 | -21% | 24%
Cc1ccc(CN(Cc2ccco2)C(=O)c2ccc(OCC(C)C)cc2)cc1 | 1% | 31%[activator]
CCN1CCCC1CNC(=O)c1nc(-c2ccc3cc[nH]c3c2)no1 (stereo not given) | 5% | -19%
Cc1ccccc1NC(=O)C(=O)NCC(c1ccc2c(c1)OCO2)N1CCN(c2ccccc2)CC1 (stereo not given) | -12% | -8%
COc1cccc(NC(=O)C2CCN(S(=O)(=O)c3cc(-c4noc(C)n4)ccc3C)CC2)c1 | u | u
CN(Cc1cccc(F)c1)C(=O)c1cc(-c2ccccc2)n[nH]1 | 60%[activator] | 54%[activator]
COc1ccc(-c2ocnc2C(=O)Nc2cc(F)ccc2F)cc1OC | -2% | 11%
Nc1nc(Nc2ccc(Br)cc2)sc1C(=O)c1cccc(Br)c1 | 0% | 23%
CCN1C(=O)C(O)(C(F)(F)F)c2cc(C(O)(C(=O)OC)C(F)(F)F)ccc21 (stereo not given) | -5% | 11%
CN(Cc1ccccc1Br)C(=O)Cn1c(Cl)nc2c1c(=O)n(C)c(=O)n2C | u | u
Cc1ccc(S(C)(=O)=O)cc1C(=O)NC(C)C1CC1 (stereo not given) | -7% | -6%
Cc1cccc(N2CCN(Cc3ncc(-c4ccc(F)cc4)o3)CC2)c1C | 38%[activator] | 1%
Cc1ccc(NC(=O)CSc2nccn2Cc2ccco2)cc1Cl | 96%[activator] | 55%[activator]
Cc1cc(C)c(C)c(S(=O)(=O)NCCO)c1C | 11% | 314%[activator]
Cc1ccc(CNCc2ccc3c(c2)n(C)c(=O)n3C)cc1 | 1% | -8%
CC(C)(C)c1noc(CCC(=O)Nc2ccccn2)n1 | 10% | 3%
COc1ccc(CCNC(=O)c2cccc3c(=O)c(C)c(-c4ccccc4)oc23)cc1 | 30% | 18%
O=C(c1ccc(O)cc1)c1ccc(F)cc1 | 115%[activator] | 9%
COc1cccc(OC)c1C(=O)C1CC(=O)Nc2c1c(C)nn2-c1ccc(F)cc1 (stereo not given) | 24% | 25%
Cn1c(=O)c2c(ncn2CC(=O)NCC(c2cccs2)N2CCCC2)n(C)c1=O (stereo not given) | 4% | -3%
O=C1c2[nH]nc(-c3ccccc3O)c2C(c2ccc(F)cc2)N1CCO (stereo not given) | 3% | -2%
Cc1ccc2nc(C)c(C(=O)N3CCN(S(=O)(=O)c4ccc(C#N)cc4)CC3)cc2c1 | 1% | -3%
COC(=O)c1ccc(-c2ccc(C=O)o2)cc1 | 22% | 5%
COc1cccc(C(=O)Nc2nnc(S(=O)(=O)N3CCCc4ccccc43)s2)c1 | 10% | 4%
O=C(/C=C/c1ccccc1)N1CCC(C(=O)N2CCN(Cc3cccc(C(F)(F)F)c3)CC2)CC1 | -7% | u
Cc1ccc(-c2ocnc2C(=O)Nc2ccc(C)c(Cl)c2)o1 | 15% | 2%
COc1cc(C2c3c(-c4ccccc4O)n[nH]c3C(=O)N2CCO)ccc1OCC(C)C (stereo not given) | 13% | 4%
O=C(CCC1NC(=O)c2ccccc2NC1=O)NC1CCCC1 (stereo not given) | -6% | -7%
Cc1cccc(C(C)C)c1NC(=O)CSc1ccccc1Cl | u | u
O=C(c1cc2ccccc2oc1=O)N(Cc1cccs1)C1CC1 | -4% | 145%[activator]
O=C(O)c1ccc(NCc2nc3ccccc3n2CCOc2ccccc2Cl)cc1 | 10% | 90%[activator]
CCN(C)Cc1cccc(CNC(=O)c2cc(C)nc3ccccc23)c1 | 0% | -9%
CC(C)CCC(=O)N1CCCC(CN2CCN(c3ccccn3)CC2)C1 (stereo not given) | 3% | -4%
COCCOc1cccc(N)c1 | 0% | -1%
Cc1cccc(-c2nc3scc(CCNC(=O)c4ccc(Br)o4)n3n2)c1 | -14% | -3%
CCc1ccc2oc(C(=O)N(Cc3ccc(C(C)(C)C)cc3)C3CCS(=O)(=O)C3)cc(=O)c2c1 (stereo not given) | u | -20%
N#Cc1nc(Cc2cccc3ccccc23)oc1NCc1ccc(F)cc1 | -18% | -20%
Cc1csc(NC(=O)c2[nH]c3c(c2C)C(=O)CCC3)n1 | -84% | 10%
Cc1cc(NC(=O)C(C)OC(=O)c2cc3c(s2)CCC3)no1 (stereo not given) | 10% | -2%
Cc1ccc(C)c(C(=O)CSc2nc3ccccc3o2)c1 | 7% | 11%
CCC(Sc1nc2cc3c(cc2c(=O)n1CCCC(=O)NCc1ccc2c(c1)OCO2)OCO3)C(=O)NCCCOC (stereo not given) | -25% | -9%
COc1cc(C(CC(=O)Nc2ccc(Br)cn2)N2Cc3ccccc3C2=O)cc(OC)c1OC (stereo not given) | -12% | 33%[activator]
COc1ccccc1-n1cc2c(c1-c1ccc(C)cc1)c(=O)n(C)c(=O)n2C | 9% | 20%
Cc1ccc(C)c(S(=O)(=O)N2CCN(C(C(=O)NC3CC3)c3ccccc3)CC2)c1 (stereo not given) | 4% | 17%
O=C(C1CCCN(S(=O)(=O)c2cccc3nonc23)C1)N1CCN(c2ccccc2Cl)CC1 (stereo not given) | -13% | 18%
COc1ccccc1NC(=O)CN1C(=O)C2(SCC(=O)N2c2cc(C)cc(C)c2)c2ccccc21 (stereo not given) | 15% | 1%
CC(=O)Nc1ccc(S(=O)(=O)NCC2CCC(C(=O)NCc3ccccc3Cl)CC2)cc1 (stereo not given) | 31%[activator] | 9%
COC(=O)c1ccc(OC(=O)c2ccccc2OCc2ccc(Cl)cc2)cc1 | 13% | 4%
N#Cc1ccc(CS(=O)(=O)Cc2cccc(F)c2)cc1 | -3% | -25%
Cn1c(=O)c2c(ncn2CCC(=O)Nc2ccccc2F)n(C)c1=O | 4% | -1%
CCCN1C(=O)CN(C2CCCCC2)C(=O)C1c1ccc(OC)c(OC)c1 (stereo not given) | -8% | 0%
COc1ccc(CCNC(=O)c2cc(C)nc3c2c(C)nn3-c2ccccc2)cc1OC | -4% | 5%
COc1ccc(C2CC(=O)Oc3c2c(=O)[nH]c2ccccc32)cc1OC (stereo not given) | 15% | 18%
CCC1CCc2c(sc(NC(=O)C(CC)CC)c2C#N)C1 (stereo not given) | 11% | 6%
Cc1oc2ccc(OCc3cccc(Cl)c3)cc2c1C(=O)O | 15% | 2%
Cc1sc(NC(=O)c2ccccc2)c(C(c2cccs2)N2CCN(C)CC2)c1C (stereo not given) | 37%[activator] | -5%
COc1ccc(C)cc1NC(=O)CN1CCN(CC(=O)Nc2ccccc2F)CC1 | -16% | -6%
Cc1ccc(C(=O)Nc2cccc3c2CCCC3)cc1 | 214%[activator] | 48%[activator]
Cc1ccc(Cl)c(OC(=O)c2nn(C)c(=O)c3ccccc23)c1 | -2% | -10%
CSc1ccc(Cl)c(C(=O)O)c1 | 12% | 3%

# Remaining list, next part.
SMILES | 2A firefly | 2A Renilla
Cc1ccc(C(=O)Nc2ccc3oc(-c4ccc(F)cc4)nc3c2)cc1 | 94%[activator] | -1%
Cc1ccc(Cl)cc1NC(=O)COC(=O)c1nn(-c2ccccc2)c(=O)c2ccccc12 | 14% | 6%
COc1ccc(-c2nc(-c3ccc(S(=O)(=O)N4CCCC4)cc3)cs2)cc1OC | -11% | 0%
CN(CC(=O)NCCC#N)Cc1ccc(C(C)(C)C)cc1 | 19% | -6%
CO/N=C/c1ccc(OC)c(Cl)c1 | 8% | 1%
CCc1ccc(OCC(O)Cn2c(=O)c3ccccc3n3nc(C)cc23)cc1 (stereo not given) | 10% | 13%
O=CNNC(=S)Nc1ccc(Cl)cc1Cl | -4% | -2%
COc1ccc(NC(=O)C(C)n2nc(-c3ccc(C)c(C)c3)ccc2=O)cc1OC (stereo not given) | 24% | 7%
CC(C)C(=O)N1N=C(c2ccc(F)cc2)CC1c1ccc2nccnc2c1 (stereo not given) | 11% | 5%
O=C(CSc1ncc2c(n1)-c1ccccc1N(Cc1ccc(Cl)cc1)S2(=O)=O)c1ccc(Cl)cc1 | -14% | 0%
O=C(Cn1ncc2c(Cl)cccc21)NCc1cccc(F)c1 | 51%[activator] | -4%
CCc1cccc2c(C3=CCN(C(=O)C(C)(C)C)CC3)c[nH]c12 | 141%[activator] | -2%
CN(C(=O)c1cnc(N2CCOCC2)c2ccccc12)c1ccccc1F | -27% | -1%
CC(=O)c1cccc(-n2c(=O)c3c4c(sc3n(Cc3cccc(C)c3)c2=O)CN(C(C)=O)CC4)c1 | -22% | -11%
O=C(Cc1ccc(Cl)cc1)NN=C1CCC(c2ccccc2)CC1 (stereo not given) | 62%[activator] | 33%[activator]
O=C1C(O)=C(c2ccccc2)C(c2ccccc2F)N1c1ccc(F)cc1 (stereo not given) | -26% | 3%
Cc1ccc(S(=O)(=O)Cc2ccc(Cl)cc2)cc1 | 42%[activator] | 33%[activator]
Cc1ccc(-n2c3nc(=O)n(C)c(=O)c-3cc3c(Cl)cccc32)c(C)c1 | -39% | -14%
CC(C)C(NC(=O)c1ccc(CS(C)(=O)=O)cc1)c1ccc(F)cc1 (stereo not given) | -5% | 11%
Cc1nc(NCCc2ccc3c(c2)OCO3)c2c3c(sc2n1)CCC3 | u | u
CN1CCN(c2ccc(NC(=O)c3cccc(Cl)c3)nc2)CC1 | u | -14%
CCC(C(=O)Nc1cc(F)ccc1F)n1nc(C)c2c(C)n(-c3ccc(C)cc3)nc2c1=O (stereo not given) | -8% | u
O=C(OCc1cnc(-c2ccccc2)s1)c1ccc(S(=O)(=O)N2CCCC2)cc1 | 11% | -9%
CN1C(=O)c2cccc3c(S(=O)(=O)Nc4cccc(C(=O)O)c4)ccc1c23 | -11% | -5%
O=C(NCCCN1CCN(c2cccc(Cl)c2)CC1)c1cnn(-c2ccc(F)cc2)c1-n1cccc1 | -17% | -12%

# Quoted at random: six records from the list.
SMILES | 2A firefly | 2A Renilla
CN1CCN(c2ccc(NC(=O)c3cccc(Cl)c3)nc2)CC1 | u | -14%
O=C(OCc1cnc(-c2ccccc2)s1)c1ccc(S(=O)(=O)N2CCCC2)cc1 | 11% | -9%
CN1C(=O)c2cccc3c(S(=O)(=O)Nc4cccc(C(=O)O)c4)ccc1c23 | -11% | -5%
Cc1ccc(-n2c3nc(=O)n(C)c(=O)c-3cc3c(Cl)cccc32)c(C)c1 | -39% | -14%
CN(C(=O)c1cnc(N2CCOCC2)c2ccccc12)c1ccccc1F | -27% | -1%
Cc1nc(NCCc2ccc3c(c2)OCO3)c2c3c(sc2n1)CCC3 | u | u

# Source: PubChem
